High-throughput results: PubChem BioAssay, several laboratories
CBX7 inh: CBX7 chromodomain binding inhibitors, primary screen, biochemical, AlphaScreen. Chromobox protein homolog 7 (Homo sapiens), O95931. AlphaScreen His6-CBX7 / biotin-H3K27me3 peptide binding; active compounds read low. normalised signal (fraction of DMSO) (test concentration not listed). hit rate 1.1% among 66,000. AID 1224903, 2016; in the data active means normalised signal below about 0.5;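 further: 100 nL library stock added to about 20 µL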
Target sequence (O95931 whole entry, looked up): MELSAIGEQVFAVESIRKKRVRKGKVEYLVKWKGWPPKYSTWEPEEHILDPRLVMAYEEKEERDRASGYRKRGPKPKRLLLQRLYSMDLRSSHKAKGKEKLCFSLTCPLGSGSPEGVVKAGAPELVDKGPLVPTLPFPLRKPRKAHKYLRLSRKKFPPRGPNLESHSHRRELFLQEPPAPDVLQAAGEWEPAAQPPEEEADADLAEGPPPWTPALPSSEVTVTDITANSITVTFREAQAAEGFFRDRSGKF
CBX7 inh z-score: further read-out of CBX7 inh, marked with its call; z-score; measured here: z-score of CBX7 signal; some inactives read as strong as hits; reference of the scale not given here;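 same signal on another scale; lower means less binding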
An asterisk follows results filed as active. Only part of the results is shown (hit frequency here may not be typical).

SMILES	CBX7 inh	CBX7 inh z-score
COC(=O)Cc1nc(Nc2ccc(Cl)c(Cl)c2)c2c(C)c(C)sc2n1	1.1	2.5
O=C(NCCCN1CCc2ccccc2C1)c1cc(=O)[nH]c2ccc(S(=O)(=O)N3CCCC3)cc12	0.91	-1.8
O=C(NCCN1CCC(Cc2ccccc2)CC1)c1cc(-c2ccncc2)nc2ccccc12	0.92	-3
CCN1CCN(CCCNC(=O)c2ccc3c(c2)N(Cc2ccc(F)cc2)CCS3)CC1	0.9	-4.6
COc1ccc(-c2cc(C(=O)Nc3ccc(Br)cc3)no2)cc1OC	1	0.047
Cc1ccc(NC(=O)CC2Oc3ccc(C)cc3NC2=O)c(Cl)c1 (centres undefined)	1	0.88
CCOC(=O)c1cnc2ccc(OC)cc2c1Nc1ccc(OC(F)(F)F)cc1	1	0.1
Cn1c(Sc2c(-c3ccccc3)c3cc(Cl)ccc3[nH]c2=O)nnc1C1CCCC1	0.83	-2
Cc1[nH]c2ccccc2c(=O)c1CN(C)Cc1ccccc1	1.1	0.77
CC(=O)C1C(c2cccc(F)c2)c2c(n[nH]c2C)CC1(C)O (centres undefined)	1.1	1.3
COc1ccc(C2CC(=O)N(CC(=O)Nc3ccc(C)cc3)c3ccccc3S2)cc1 (centres undefined)	0.86	-2.4
Cc1ccc(CNC(=O)C2CCCN(Cc3nc(-c4ccc(Cl)cc4)oc3C)C2)cc1 (centres undefined)	1	0.74
O=C1CN(C(=O)c2ccccc2)C(c2ccc(F)cc2)c2cc(F)ccc2N1 (centres undefined)	1	0.077
Cc1ccccc1Nc1nc(-c2ccccc2)c(CC(=O)O)s1	1.1	3.3
Cc1ccc2c(c1)c(=O)c(C(=O)c1ccc3c(c1)OCO3)cn2Cc1ccc(Cl)cc1	0.74	-0.91
CCCCOc1ccc(-c2nc3ncccn3c2NC2CCCC2)cc1	0.91	-1.4
COc1ccc(NC(=O)c2cc(-c3ccc(Br)cc3)on2)c(OC)c1	0.98	-0.81
CCOC(=O)N1CCC(NC(=O)C2CCN(Cc3nc(-c4cccc(Cl)c4)oc3C)CC2)CC1	1.3	2.9
CCOc1ccc(C(=O)Nc2ccc3oc(-c4ccc(Cl)cc4)nc3c2)cc1	1.1	0.84
CCOC(=O)c1ccccc1Nc1nc(-c2ccccc2F)nc2ccccc12	1.4	2.5
Cn1nc(-c2ccccc2F)c2cc(C(=O)NCc3ccc4c(c3)OCO4)sc21	0.92	-1.2
COc1ccc(-n2cnc3cc(NCc4cccc(OC)c4OC)ccc32)cc1	0.2*	-5*
Cc1ccc(C(=O)CSc2nc3sc(C)c(C)c3c(=O)[nH]2)cc1	1	0.37
COc1ccccc1CNC(=O)CCc1nc(-c2ccc(C)cc2)no1	1.1	0.18
CCOC(=O)c1c(NC(=O)CN2CCCCCC2)sc2c1CCCC2=O	1	0.16

Reprinted from the part before: 2 entries, then new ones.
SMILES	CBX7 inh	CBX7 inh z-score
COc1ccccc1CNC(=O)CCc1nc(-c2ccc(C)cc2)no1	1.1	0.18
CCOC(=O)c1c(NC(=O)CN2CCCCCC2)sc2c1CCCC2=O	1	0.16
COc1ccc(N2Cc3cccc(C(=O)Nc4ccc(C)c(C)c4)c3C2=O)cc1	0.95	-1.2
O=C(Cn1nc(Cc2ccncc2)c2ccccc2c1=O)NCCc1ccc(Cl)cc1	0.97	-0.61
CCOC(=O)c1c(C)n(C)c2ccc(OCC(O)CNc3ccccc3F)cc12 (centres undefined)	1	0.084
C=CCNC(=O)c1ccc2c(c1)NC(=O)c1ccccc1N2	0.93	-0.54
Fc1ccccc1-c1nc(-c2ccccc2)c(-c2ccc(Sc3ccccc3)cc2)[nH]1	0.69	-6.2
COc1ccc(N2C(=O)CC(N3CCN(c4ccccn4)CC3)C2=O)cc1 (centres undefined)	1	1.4
COc1ccccc1OCC(=O)Nc1ncc(Cc2ccccc2Cl)s1	1.2	2.7
Cc1cccc(N2CCN(C(=O)C3CC(=O)N(c4ccc(F)c(Cl)c4)C3)CC2)c1C (centres undefined)	1	0.96
Cc1n[nH]c(C)c1CCCOc1c(C(C)C)cccc1C(C)C	0.87	-4.6
Cc1ccc(S(=O)(=O)Nc2ccccc2C(=O)Nc2nc3ccc(Br)cc3s2)cc1	0.77	-3.9
CCOC(=O)N1CCC(Nc2c(N3CCN(c4cccc(OC)c4)CC3)c(=O)c2=O)CC1	1	0.012
Cc1nn(CC(=O)NCc2ccc(Cl)cc2)c2ccccc12	1	0.73
COc1ccc(-c2cc3nc(C)c(CCC(=O)Nc4cc(C)ccc4C)c(C)n3n2)c(OC)c1	1	0.28
O=C(CC1Sc2ccccc2NC1=O)NCc1ccccc1Cl (centres undefined)	1	0.96
COc1ccc(CN2C(=O)CN(C3CCCCCC3)C(=O)C2c2ccc(F)cc2)cc1 (centres undefined)	0.97	-0.44
COc1ccc(CCNC(=O)Cn2nnc(-c3ccc(OCc4ccccc4F)cc3)n2)cc1OC	1	0.066
Cc1ccc(Nc2cc(C(=O)NCc3cccs3)c3ccccc3n2)c(C)c1	1.1	1.4
O=C(CCNS(=O)(=O)c1ccc2c(c1)CCC(=O)N2)NCCc1ccc(Cl)cc1	1	0.88
O=C(CSCc1cnn(-c2ccccc2)c1-n1cccc1)NCCCc1ccccc1	1	2.1
COc1ccc(-c2nc(CSCC(=O)N(C)Cc3ccccc3)c(C)o2)cc1OC	1.1	0.91
CC1CCC(NC(=O)c2ccc3c(c2)N(Cc2ccccc2F)C(=O)c2ccccc2S3=O)CC1 (centres undefined)	1	0.11
COc1ccccc1CNC(=O)CN1CCN(Cc2ccc(Cl)cc2)C1=O	0.92	-1.4
CCCOc1ccc(C(=O)Nc2ccc(-c3nc4cc(Cl)ccc4o3)cc2)cc1	1	-0.056
O=C(Cn1nc(-c2ccccc2)c2ccccc2c1=O)Nc1cccnc1	0.78	-2.4
CC(CNC(=O)C1CCCN(c2nc3ccccc3[nH]2)C1)c1ccccc1 (centres undefined)	0.87	-1.5

The list continues:
SMILES	CBX7 inh	CBX7 inh z-score
COc1ccccc1NC(=O)C1CCN(S(=O)(=O)c2cccnc2)CC1	1	1.1
Cc1ccc([N+](=O)[O-])cc1-n1nc(-c2ccc(Cl)cc2)cc1-c1ccc(Cl)cc1	0.64	-5.6
CCOc1ccc(-n2cc(-c3ccccc3)c3c(NC4CCCC4)ncnc32)cc1	0.9	-3
CC(NC(=O)C(=O)N1CCCCC1)C(c1cccs1)N1CCN(c2ccc(F)cc2)CC1 (centres undefined)	1	-0.0074
CCC(=O)N1CCc2cc(S(=O)(=O)NCC3CCCO3)ccc21 (centres undefined)	0.84	-0.65
CCCN(CCC)S(=O)(=O)c1ccc2c(c1)N(CC(=O)NC(C)C)C(=O)CS2	0.98	-0.77
O=C(Cn1nc(Cc2ccncc2)c2ccccc2c1=O)N1CCCC1	0.96	-1.1
CC(=O)NC(CCS(C)(=O)=O)C(=O)Nc1ccc(C)c(F)c1 (centres undefined)	1	1.2
Cc1sc2ncnc(NCC3(c4ccccc4)CCCC3)c2c1C	1.1	1.9
O=C1CN(C(=O)Cc2ccccc2)C(c2ccc(F)cc2)c2cc(Br)ccc2N1 (centres undefined)	0.93	-1.8
CN(C)CCNC(=O)c1ccc2c(c1)N(Cc1ccc(F)cc1)CCS2	1.1	0.096
CN1CCN(CCCNC(=O)C2CCN(c3nnc(-n4cccc4)s3)CC2)CC1	1.2	2.2
Nc1ccc2nc(-c3ccncc3)[nH]c2c1	1.1	0.68
COc1ccc(OC)c(NC(=O)c2c(NCc3cccnc3)sc3c2CCC3)c1	0.92	-0.9
CCc1ccc(NS(=O)(=O)c2ccc3[nH]cc(C(=O)NC4CCCC4)c(=O)c3c2)cc1	0.95	-0.23
CC1(C)CC(=O)N(CC(=O)NCCc2ccccc2)c2ccccc2S1	1	1.2
O=C1CCCc2oc3c(Br)cc(NS(=O)(=O)c4ccc(Cl)cc4)cc3c21	1	0.2
COC(=O)c1cc2ccsc2n1Cc1nc(-c2ccc(OC)cc2)oc1C	0.98	-0.57
CCOC(=O)c1oc2ccccc2c1NC(=O)COc1ccc(C)cc1	1	1.1
O=C(Cn1nnc(-c2ccccc2)n1)Nc1ccccc1F	0.87	-1.1
CC1CCC(NC(=O)CNc2ccccc2-c2nc3ccccc3[nH]c2=O)CC1 (centres undefined)	1.1	2.3
CCc1ccccc1NC(=O)CCc1nc(-c2cccs2)no1	1	0.51
CCc1ccc(-c2csc(Nc3ccc(S(=O)(=O)Nc4cc(OC)nc(OC)n4)cc3)n2)cc1	1	0.57
COC(=O)c1ccc(Nc2nc(-c3ccc(Cl)cc3)nc3ccccc23)cc1	1.1	2.1
Cc1ccc2c(c1)N(CC(=O)NCCN1CCCCCC1)C(=O)CO2	1.1	2.5

Remaining list, next part:
SMILES	CBX7 inh	CBX7 inh z-score
COCCNC(=O)C1CCN(Cc2nc(-c3ccccc3C)oc2C)CC1	1	0.44
CCc1ccc(C2Nc3ccc4ncccc4c3C3=C2C(=O)CCC3)cc1 (centres undefined)	1.1	2.8
COc1ccccc1N1CCN(C(=O)C2CC(c3ccc(F)cc3)=NO2)CC1 (centres undefined)	1	0.047
COc1ccc(NS(=O)(=O)c2ccc3c(c2)CCN3C(=O)C2CCC2)cc1	0.99	-0.29
O=C(CSc1nccn1-c1ccccc1)Nc1ccc(Br)cc1	0.75	-5.3
O=C1c2ccccc2C(Nc2ccc(S(=O)(=O)N3CCOCC3)cc2)N1c1cccnc1 (centres undefined)	0.93	-1.3
CN1CCc2c1nc1ccccc1c2NC(=O)CNC1CC1	0.71	-0.6
Cc1ccc(C)c(Cc2c(C)nc3c(C(=O)NCC4CCCO4)cnn3c2C)c1 (centres undefined)	0.96	-0.97
CCC(=O)Nc1nnc(COc2ccc(C(C)(C)C)cc2)s1	0.96	-0.86
Cc1cc(C)c(N2CC(c3nc4ccccc4n3CC(C)C)CC2=O)c(C)c1 (centres undefined)	0.98	-0.11
Cc1ccc2cc(C)c(NCCO)nc2c1	1.2	2
CCCn1c(=N)n(CC(O)COc2ccccc2)c2ccccc21 (centres undefined)	0.96	-1
O=C(NCC1(c2ccccc2)CCOCC1)c1cccc(Cl)c1	0.95	-1.5
CC(C)C(C(=O)Nc1ccccc1C(F)(F)F)N1C(=O)c2ccccc2C1=O (centres undefined)	0.76	-0.99
Cc1noc(NS(=O)(=O)c2ccc(NC(=O)c3ccccc3Cl)cc2)c1C	1	0.2
CCC1Oc2ccc(C)cc2N(CC(=O)NCCN2C(C)CCCC2C)C1=O (centres undefined)	1	-0.16
Cc1ccc(-c2nn(CC(=O)N3CCOCC3)c(=O)c3ccccc23)cc1	1	0.96
CCOC(=O)N1CCN(c2nc(-c3ccccc3)c3cc(C)ccc3n2)CC1	1.3	1
COc1nnc(-c2ccc(N3CCOCC3)c(NS(=O)(=O)c3ccc(Cl)cc3)c2)c2ccccc12	0.98	-0.49
Cc1ccc(-c2noc(CCC(=O)NCCCN3CC(C)CC(C)C3)n2)cc1 (centres undefined)	1.4	3.6
Cc1ccc(NC(=O)[C@H](Cc2ccccc2)N2Cc3ccccc3C2=O)cc1F	0.68	-0.9
CC(C)c1ccc(CN(C(=O)c2sc3ccccc3c2Cl)C2CCS(=O)(=O)C2)cc1 (centres undefined)	1	0.15
O=C(CCNS(=O)(=O)c1ccc2c(c1)CCC(=O)N2)NCc1cccnc1	1	0.022
CCCNC(=O)c1ccc2c(c1)N(Cc1ccc(Cl)cc1)C(=O)c1ccccc1S2=O (centres undefined)	1	0.06
O=C1NCCN1C(=O)C(c1ccccc1)c1ccccc1	1.1	3

Copied from the list.
Entry for Cc1ccc(C)c(Cc2c(C)nc3c(C(=O)NCC4CCCO4)cnn3c2C)c1 (centres undefined) under CBX7 inh z-score: -0.97
Entry for CCOC(=O)N1CCN(c2nc(-c3ccccc3)c3cc(C)ccc3n2)CC1 under CBX7 inh z-score: 1
Entry for CCCn1c(=N)n(CC(O)COc2ccccc2)c2ccccc21 (centres undefined) under CBX7 inh: 0.96

3 compounds out of the list above, sorted by their value in CBX7 inh z-score, largest number first:
SMILES | CBX7 inh z-score
COc1ccc(N2C(=O)CC(N3CCN(c4ccccn4)CC3)C2=O)cc1 (centres undefined) | 1.4
CCC1Oc2ccc(C)cc2N(CC(=O)NCCN2C(C)CCCC2C)C1=O (centres undefined) | -0.16
Cc1ccc(S(=O)(=O)Nc2ccccc2C(=O)Nc2nc3ccc(Br)cc3s2)cc1 | -3.9

Six entries from above, sorted by formula weight, ascending.
SMILES	CBX7 inh	CBX7 inh z-score
Cc1ccc2cc(C)c(NCCO)nc2c1	1.2	2
CCc1ccc(C2Nc3ccc4ncccc4c3C3=C2C(=O)CCC3)cc1 (centres undefined)	1.1	2.8
COc1ccccc1N1CCN(C(=O)C2CC(c3ccc(F)cc3)=NO2)CC1 (centres undefined)	1	0.047
COc1ccc(NS(=O)(=O)c2ccc3c(c2)CCN3C(=O)C2CCC2)cc1	0.99	-0.29
CC(C)C(C(=O)Nc1ccccc1C(F)(F)F)N1C(=O)c2ccccc2C1=O (centres undefined)	0.76	-0.99
CCCNC(=O)c1ccc2c(c1)N(Cc1ccc(Cl)cc1)C(=O)c1ccccc1S2=O (centres undefined)	1	0.06

The list goes on.
SMILES	CBX7 inh	CBX7 inh z-score
COc1ccccc1C(NC(=O)C(C)C)c1cc(Cl)c2cccnc2c1O (centres undefined)	0.71	-1
O=C1C2C3C=CC(C3=C3CCCCC3)C2C(=O)N1c1ccc(Cl)c(Cl)c1 (centres undefined)	1	0.8
Cc1cccc(-c2cc(C(=O)NCc3cnn(C)c3)c3ccccc3n2)c1	1.1	1.4
COc1ccc(NC(=O)c2cc(-c3ccc(O)cc3)on2)cc1OC	1	0.45
Cc1ccccc1Nc1c(-c2ccsc2)nc2ccc(Br)cn12	0.86	-2.4
CCN(CCCNC(=O)c1cn(C2CCCC2)c(=O)c2c1c1ccccc1n2C)Cc1ccccc1	0.91	-2.6
CC(C)CN(CC(C)C)c1nnc(NC(=O)Nc2ccccc2C(F)(F)F)s1	0.83	-0.67
Cc1ccc(-c2nc3ncccc3o2)cc1NC(=O)c1ccccc1Br	1.1	1.7
Cc1ccc(S(=O)(=O)C2(C(=O)NC3CCCC3)CC2)cc1	1	0.16
CC(C)CCNC(=O)c1c[nH]n2c(=O)cc(CSc3ccc(Cl)cc3)nc12	1	0.14
